Screening results from PubChem BioAssay.
GALR2 agonist: agonists of human galanin receptor 2 (GALR2). GALR2-expressing cells, agonist activation read-out. activation, %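 (tested at 5 µM)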. actives 0.48% (n = 140,000);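 active = above mean plus 3 SD of all compounds, about 5% in these data, not always enough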;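 note: 0% = vehicle buffer wells and 100% = reference agonist at full effect; tested in CHO reporter cells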
Target sequence (O43603 whole entry, looked up): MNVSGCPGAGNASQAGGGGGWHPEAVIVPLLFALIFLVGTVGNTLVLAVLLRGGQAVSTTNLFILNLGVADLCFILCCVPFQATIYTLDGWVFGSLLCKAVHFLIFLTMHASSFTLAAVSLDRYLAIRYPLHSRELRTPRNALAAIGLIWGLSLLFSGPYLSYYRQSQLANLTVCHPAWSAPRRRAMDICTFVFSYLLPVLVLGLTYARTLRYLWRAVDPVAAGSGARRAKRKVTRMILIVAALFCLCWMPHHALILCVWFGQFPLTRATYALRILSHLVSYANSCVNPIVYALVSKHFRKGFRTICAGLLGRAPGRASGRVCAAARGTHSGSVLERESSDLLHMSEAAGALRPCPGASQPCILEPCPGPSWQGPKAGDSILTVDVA
PKD1 inh: PKD1 (human) kinase inhibition | PKD1 kinase fluorescence polarization assay | inhibition, %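 (about 10 µM by stock and volumes)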 | actives 0.056% (n = 200,000);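 active = inhibition of 50% or more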;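 note: controls were vehicle for no effect and a reference inhibitor for full effect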
HSV augment: increases HSV replication in cells. HSV replication augmentation in cells, fold increase. maximum fold increase. actives 0.005% (n = 220,000). AID 1956;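 active = peak rise of 1.5-fold or more in the series; tested in PC3 cells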;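 note: first round at 10 µM; read as green reporter fluorescence; hits show the peak of a series up to 25 µM; 1 = signal of infected wells without compound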
Insulin prom inh: TRM-6 insulin promoter activity inhibition; inhibition, % at 2 µM; actives 0.9% (n = 130,000); TRM-6 cells (human fetal islet line), insulin promoter-eGFP reporter, imaging; reporter expression induced with tamoxifen;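 active = inhibition above the mean plus 3 SD, with well images judged a real hit on visual review, cut at about 60% in these data, passing the limit was not always enough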
RGS16-Gao HTS: regulators of human RGS16-Galphao interaction. actives 0.38% (n = 220,000). O15492+P09471. bead-based flow cytometry RGS16-Galphao binding, fluorescence; actives lie on both sides. binding response (% of control), % at 10 µM;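 active = below 25% or above 175%, edge rows of some plates excepted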;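 note: Galphao activated by GDP with aluminum fluoride before binding; 100% = wells without compound and 0% = beads without RGS; some results beyond the cut were filed as inactive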
Target sequence (O15492 whole entry, looked up): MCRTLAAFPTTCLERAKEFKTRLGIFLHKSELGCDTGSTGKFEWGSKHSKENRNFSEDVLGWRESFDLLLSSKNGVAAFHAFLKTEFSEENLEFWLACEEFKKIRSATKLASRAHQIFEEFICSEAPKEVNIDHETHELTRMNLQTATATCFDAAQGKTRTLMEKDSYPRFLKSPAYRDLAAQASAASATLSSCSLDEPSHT
Target sequence (P09471 whole entry, looked up): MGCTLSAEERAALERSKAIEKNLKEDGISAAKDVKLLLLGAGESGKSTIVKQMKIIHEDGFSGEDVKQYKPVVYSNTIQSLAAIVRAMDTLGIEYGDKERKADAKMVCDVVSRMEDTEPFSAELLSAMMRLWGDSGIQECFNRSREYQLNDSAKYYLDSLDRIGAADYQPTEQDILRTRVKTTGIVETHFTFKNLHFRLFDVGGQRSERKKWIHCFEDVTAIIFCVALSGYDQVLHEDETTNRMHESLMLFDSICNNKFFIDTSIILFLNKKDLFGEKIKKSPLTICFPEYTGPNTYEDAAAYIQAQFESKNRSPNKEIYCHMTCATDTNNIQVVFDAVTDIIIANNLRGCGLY
Insulin prom inh cell count: also measured in Insulin prom inh; calls as there; normalized cell count, %; measured here: cell count, toxicity; reference of the scale not given here;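 cells exposed to compound for 48 h; stained nuclei by imaging scaled within each plate; lower means fewer cells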
HSV augment primary fold: second read-out of HSV augment, no call of its own (marks repeat the call); fold increase; compound at 10 µM; measured here: primary screen fold increase 10 uM; tested in PC3 cells;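 GFP signal in the first replicate; 1 = infected wells without compound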
Numbers without * were called inactive; i = inactive; nt = no result given; [ ] = remark or other dose.

SMILES | GALR2 agonist | PKD1 inh | HSV augment | HSV augment primary fold | Insulin prom inh | Insulin prom inh cell count | RGS16-Gao HTS
COc1ccc(N2CCN(c3nc(NC(C)(C)C)nc(N4CCCCC4)n3)CC2)cc1 | -0.3 | -5 | i | 0.84 | 0 | 111 | 123
CCCCOc1ccc(-c2cc(C(=O)NNC(=S)NCC)c3ccccc3n2)cc1 | -2.1 | -10 | i | 0.77 | 11 | 129 | 95
Cc1cc(C)c(NC(=S)N(CCCN2CCN(C)CC2)Cc2cccs2)c(C)c1 | nt | -6 | i | 0.91 | 7 | 96 | 88
Cc1ccc(S(=O)(=O)NCC(=O)N(CC(=O)NCC2CCCO2)CC2CCCO2)cc1 (stereo unspecified) | nt | -1 | i | 0.98 | 11 | 31 | 98
CCOc1ccccc1N(CC(=O)O)S(=O)(=O)c1ccccc1 | -0.3 | 5 | i | 0.94 | 46 | 116 | 91
Nc1cc2c(cc1[N+](=O)[O-])OCCO2 | -1.8 | 9 | i | 0.94 | 26 | 115 | 113
O=C(CN1CCOCC1)Nc1c2c(nc3ccccc13)N(Cc1ccccc1)CC2 | -0.3 | -12 | i | 1 | nt | nt | 100
Cn1c(CNC(=O)C(C)(C)C)nc2ccccc21 | -0.9 | -3 | i | 1.1 | nt | nt | 100
CCOc1nc(NCCN2CCOCC2)nc(NC(C)C)n1 | -3.2 | -3 | i | 1 | 24 | 68 | 106
COc1ccc(C(=O)Nc2cc3c(cc2Cl)OCCCO3)cc1 | -1.7 | -4 | i | 0.9 | -34 | 173 | 104
Cc1cc(OCC(=O)c2cccc(C(F)(F)F)c2)n2cnnc2n1 | nt | nt | i | 0.95 | nt | nt | 97
CCC(NC(=O)c1ccccc1NC(=O)c1ccc(C)cc1)C(=O)O (stereo unspecified) | -0.8 | -1 | i | 1.1 | 19 | 170 | 99
CCOC(=O)N1CCC(NC(=O)C2=C(C)C(=O)OC23CCC(C)CC3)CC1 (stereo unspecified) | -1.3 | -16 | i | 0.91 | nt | nt | 104
Cc1ccc(Cn2cc(/C=N/NC(=O)Cc3nnc(NC(=O)c4ccc(C)cc4)s3)c3ccccc32)cc1 | nt | 4 | i | 1 | 20 | 100 | 96
CCOC(=O)c1cc2sccc2n1CC(=O)c1ccc2c(c1)OCCO2 | -0.7 | -2 | i | 1 | nt | nt | 105

Copied from the list:
CCOC(=O)c1cc2sccc2n1CC(=O)c1ccc2c(c1)OCCO2 – RGS16-Gao HTS: 105
CCOc1nc(NCCN2CCOCC2)nc(NC(C)C)n1 – GALR2 agonist: -3.2

Next part:
SMILES | GALR2 agonist | PKD1 inh | HSV augment | HSV augment primary fold | Insulin prom inh | Insulin prom inh cell count | RGS16-Gao HTS
CN(Cc1ccccc1)C(=O)Cn1nc(C(F)(F)F)c2c1CCC2 | -1.1 | -3 | i | 1.1 | -14 | 88 | 102
S=C(NCC1CC1)N/N=C/c1ccccc1Cl | nt | nt | i | 0.92 | nt | nt | 102
CC(C)(C)C(=O)C(Cc1ccccc1)n1cncn1 (stereo unspecified) | -3.2 | -8 | i | 1 | 3 | 64 | 100
COc1ccccc1N1CCN(CCCOc2ccc(F)cc2)CC1 | 0.0 | 3 | i | 0.98 | -29 | 122 | 95
CN(CC(=O)N1CCCC1)S(=O)(=O)c1ccc(Cl)cc1 | 0.2 | -3 | i | 0.91 | -6 | 151 | 95
CCOC(=O)c1c(C)[nH]c(C)c1C(=O)COC(=O)c1cc(OC)cc(OC)c1 | nt | 3 | i | 0.96 | -6 | 149 | 96
CC(=O)NC1C(=O)N(C)c2ccc(Br)cc21 (stereo unspecified) | -1.1 | -11 | i | 1 | -54 | 121 | 110
N#Cc1cc(-c2ccccc2)nnc1Oc1ccccc1 | -2.3 | 9 | i | 0.93 | 14 | 95 | 98
Cc1ccccc1-n1c(C)cc(/C=N/NC(=O)c2ccncc2)c1C | -1.4 | -3 | i | 0.82 | -48 | 54 | 101
C/C(N)=C(/C#N)C(=O)COC(=O)c1ccccc1Oc1ccccc1 | nt | -7 | i | 1.1 | nt | nt | 101
CCOc1cc(C#N)c(NC(=O)CSc2nnnn2-c2ccc(OC)cc2)cc1OCC | 0.1 | 1 | i | 0.88 | nt | nt | 103
O=C(NCc1ccco1)c1cc(S(=O)(=O)N2CCOCC2)c(Cl)cc1Cl | -0.6 | -6 | i | 0.97 | -37 | 112 | 99
Cc1ccc(S(=O)(=O)NC(=O)NC(C)Cc2ccccc2)cc1 (stereo unspecified) | nt | -12 | i | 0.98 | nt | nt | 75
C/C(=N\NC(=O)COc1ccccc1)c1cccs1 | 0.6 | 10 | i | 0.93 | -31 | 148 | 100
CCn1c(CSc2n[nH]c(N)n2)nc2cc(C(=O)O)ccc21 | nt | -10 | i | 1 | nt | nt | 97
O=C(Cc1cccc2ccccc12)NC(NC(=S)Nc1ccccc1Cl)C(Cl)(Cl)Cl (stereo unspecified) | 1.6 | 1 | i | 0.99 | nt | nt | 101
CCN(CC)C(=O)CSc1ncnc2c(-c3cccs3)nsc12 | -0.6 | -4 | i | 0.99 | -23 | 105 | 93
CN=c1scc(-c2ccco2)n1/N=C/c1ccc(O)c(O)c1 | nt | -2 | i | 0.83 | -25 | 47 | 98
Cc1cc(=O)n(C)c(=O)n1CCCCCN1CCCC1 | -1.1 | -12 | i | 0.84 | 0 | 129 | 96
COc1ccc(CCNC(=O)CN2CCN(c3cccc(C(F)(F)F)c3)CC2)cc1 | -3.4 | -2 | i | 0.96 | 1 | 167 | 107
CN(C)CCCNC1CS(=O)(=O)CC1O (stereo unspecified) | -2.1 | 3 | i | 1.1 | 36 | 99 | 97
O=C(O)CC(NS(=O)(=O)c1cccc2nsnc12)c1ccc(F)cc1 (stereo unspecified) | -2.0 | -6 | i | 0.97 | nt | nt | 91
CC(C)Nc1nc(Cl)nc(N(C#N)CN2C(=O)c3ccccc3S2(=O)=O)n1 | nt | nt | i | 1.3 | nt | nt | 88
COc1ccc(N(CC(=O)N2CCCC(C)C2)S(=O)(=O)c2c(C)nn(C)c2C)cc1 (stereo unspecified) | -4.4 | 2 | i | 1.1 | nt | nt | 108
O=C(C[n+]1ccccc1)c1ccc(NC(=O)c2ccccc2)cc1 | nt | -2 | i | 1 | nt | nt | 104
CC(=O)Nc1ccc(S(=O)(=O)Nc2nc(C)nc3sc4c(c23)CCC4)cc1 | nt | nt | i | 0.82 | nt | nt | 102
COCCCNC(=O)CNC(=S)N(Cc1cc(OC)c(OC)c(OC)c1)C1CCCC1 | -0.3 | -4 | i | 1.1 | 0 | 94 | 92
N/C(=N\OC(=O)COc1cc(Cl)c(Cl)cc1Cl)c1ccncc1 | nt | 0 | i | 1.1 | nt | nt | 260
CC1(c2nnc(-c3ccccc3)o2)CC(c2cccnc2)=NO1 (stereo unspecified) | nt | nt | i | 0.84 | nt | nt | 98
Cc1ccc(Cn2ncc3c(N4CCN(c5ccccc5C)CC4)ncnc32)cc1 | 1.1 | -10 | i | 1.1 | 19 | 36 | 97

Reprinted at random: 6 entries already listed
SMILES | GALR2 agonist | PKD1 inh | HSV augment | HSV augment primary fold | Insulin prom inh | Insulin prom inh cell count | RGS16-Gao HTS
Cc1cc(=O)n(C)c(=O)n1CCCCCN1CCCC1 | -1.1 | -12 | i | 0.84 | 0 | 129 | 96
CN(C)CCCNC1CS(=O)(=O)CC1O (stereo unspecified) | -2.1 | 3 | i | 1.1 | 36 | 99 | 97
CC(C)Nc1nc(Cl)nc(N(C#N)CN2C(=O)c3ccccc3S2(=O)=O)n1 | nt | nt | i | 1.3 | nt | nt | 88
O=C(Cc1cccc2ccccc12)NC(NC(=S)Nc1ccccc1Cl)C(Cl)(Cl)Cl (stereo unspecified) | 1.6 | 1 | i | 0.99 | nt | nt | 101
COc1ccc(N(CC(=O)N2CCCC(C)C2)S(=O)(=O)c2c(C)nn(C)c2C)cc1 (stereo unspecified) | -4.4 | 2 | i | 1.1 | nt | nt | 108
CC1(c2nnc(-c3ccccc3)o2)CC(c2cccnc2)=NO1 (stereo unspecified) | nt | nt | i | 0.84 | nt | nt | 98

(more compounds)
SMILES | GALR2 agonist | PKD1 inh | HSV augment | HSV augment primary fold | Insulin prom inh | Insulin prom inh cell count | RGS16-Gao HTS
Cc1nn(Cc2ccc(F)cc2Cl)c(C)c1[N+](=O)[O-] | nt | -5 | i | 1.1 | nt | nt | 104
COc1ccc2[nH]c(=O)c(CN(C(=O)c3cccnc3)c3ccccc3C)cc2c1 | nt | nt | i | 0.63 | nt | nt | 280*[activator]
O=C(CSc1ccc2nnc(-c3ccncc3)n2n1)Nc1ccc2c(c1)OCCO2 | -3.7 | -5 | i | 0.77 | nt | nt | 99
O=C1C2C(C(=O)N1CC1CCCO1)C1C=CC2C12CC2 (stereo unspecified) | -0.9 | -6 | i | 1 | 4 | 105 | 103
COc1cccc(C2(c3cccc(OC)c3)CC2C(=O)Nc2ccccc2Cl)c1 (stereo unspecified) | -1.8 | -8 | nt | nt | nt | nt | 105
CCCCCC(=O)N(CN1C(=O)CCC1=O)c1ccccc1 | -0.3 | 1 | i | 1.2 | -10 | 57 | 102
Cc1cc(C(=O)CSc2nn3c(=O)c(C(C)(C)C)nnc3s2)c(C)n1C1CC1 | nt | -5 | i | 1.1 | nt | nt | 104
COc1ccc(NC(=O)C(C)Sc2ccccc2)cc1 (stereo unspecified) | -0.2 | 1 | i | 1.2 | -8 | 82 | 93
Cc1nc2c(c(=O)c3ccccc3n2C)c(=O)n1-c1ccc(F)cc1 | nt | nt | i | 0.68 | nt | nt | 93
Cc1ccccc1OCC(=O)NCC(=O)OCC(=O)c1ccc2ccccc2c1 | -0.8 | 5 | i | 0.8 | 3 | 105 | 102
O=C(CSc1nnc(-c2ccc(C(F)(F)F)cn2)o1)Nc1ccccc1Cl | nt | nt | i | 1.1 | nt | nt | 101
CCOC(=O)Cc1c(C)nc2c(-c3ccccc3)c(C)nn2c1C | -1.6 | -7 | i | 0.93 | 54 | 83 | 99
COC(=O)c1c(NC(=O)c2ccccc2N(C)S(=O)(=O)c2ccccc2)sc2c1CCCC2 | 0.6 | -10 | i | 0.8 | nt | nt | 101
c1cncc(CSc2ccc(-c3ccc4c(c3)OCO4)nn2)c1 | nt | 7 | i | 0.9 | -23 | 108 | 100
O=c1cnnc(SCc2ccc([N+](=O)[O-])cc2)[nH]1 | nt | -6 | i | 1.1 | nt | nt | 104
CCCCCOc1ccc(Br)cc1CSC(=N)N | 0.4 | 3 | i | 0.81 | 0 | 96 | 77
Cc1ccc(NC2=NCC(=O)N2Cc2cccs2)cc1C | nt | 4 | i | 0.97 | -35 | 123 | 108
COc1ccc([N+](=O)[O-])cc1NC(=O)N(C)Cc1ccco1 | nt | nt | i | 0.87 | nt | nt | 104
CCN1C/C(=C/c2cccs2)c2nc3ccccc3c(C(=O)O)c2C1 | nt | nt | i | 0.99 | nt | nt | 95
CSc1c(-c2ccccc2)nc2ccccc2c1C(=O)O | -1.0 | -2 | i | 0.85 | -21 | 109 | 98
Cc1cc(S(=O)(=O)NC2CCCCC2)ccc1OCC(=O)NCc1cccnc1 | -0.8 | 0 | i | 0.94 | -30 | 101 | 102
CC1(C)Cc2nc3sc4c(=O)[nH]cnc4c3cc2CS1 | -2.5 | -2 | i | 1 | 0 | 126 | 108
COCCN1Cc2cc3cc(C)ccc3nc2SC1=Nc1ccc(OC)cc1 | nt | -5 | i | 0.91 | 35 | 126 | 96
